# Bead autofluor – flagged as autofluorescent in microsphere protease counterscreen; 3.1% of 360,000 active; compound autofluorescence counterscreen, microsphere flow cytometry; stronger effect = higher value; fluorescence intensity (concentration not given with the values); AID 624483;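 active = at least 3 SD above the mean of all compounds, about 16000 in these data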;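 note: 100 nL of 1 mM stock went into each well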
# BJeLR lethal – MLPCN primary cell-based screen for lethality selective to Ras in HRASV12 cells; AID 1554, 2009; inhibition, % (no concentration beside the values); 0.17% of 300,000 active; BJeLR (HRASV12) viability, CellTiter-Glo ATP luminescence, 48 h; reference of the scale not given here;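 active = replicate mean above 50%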;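 note: 50 nL library stock added to about 25 µL; numbers are from one replicate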
# RN4220 kill – growth inhibition of S. aureus RN4220, primary screen, OD600. 16 h. inhibition, % (test concentration not listed). AID 1259311, 2017. 0.33% of 330,000 active;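 active = z-score of -3 or lower and OD600 up to 0.18 on both plates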;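 note: plate controls were untreated cells for no effect and reference antibiotic for full effect; stock transfer was 100 nL into about 80 µL; one replicate is shown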
# Sa ugtP lethal – growth inhibition of ugtP-null S. aureus, primary screen, RN4220 ugtP deletion, OD600 | 16 h; some inactives read as strong as hits | growth inhibition, % (test concentration not listed) | 0.54% of 330,000 active;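 active = z-score under -3 and OD600 up to 0.15 on both plates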;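 note: plate controls were untreated wells for no effect and antibiotic for full effect; wells of about 80 µL received 100 nL stock; the first replicate is given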
# Mtb hypoxia inh – PubChem AID 1159583; M. tuberculosis hypoxia-regulated fluorescent reporter, fluorescence; fluorescence inhibition, % (no concentration beside the values); 0.1% of 300,000 active;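 active = 35 to 45% if threefold the growth effect, above 45% if 1.5-fold the growth effect; inactive = the rest, general growth blockers included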;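 note: wells of about 50 µL received 100 nL stock; 0% = vehicle wells and 100% = reference inhibitor wells; whole bacteria with a GFP reporter of the hypoxia response; strong numbers were not always called active; many hits fall short of the cut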
# PrP UTR inh – inhibition of PrP 5' UTR reporter expression; 0.35% of 340,000 active; inhibition, % (no concentration beside the values); cell-based PrP 5' UTR mRNA reporter, plate reader; AID 488862, 2010;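 active = every replicate at 50% or more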;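 note: 0 = median of the neutral control wells; tested in H4 reporter cells; numbers are from one replicate; inactives centre near -14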
# Mtb hypoxia inh growth – also measured in Mtb hypoxia inh; calls as there; growth inhibition, %; measured here: M. tuberculosis growth (absorbance);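 0% = vehicle and 100% = reference antibiotic; read after six days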
# An asterisk follows results filed as active; . = not tested or not shown; & = joins results of further samples.
# Results follow in this order: Bead autofluor, BJeLR lethal, RN4220 kill, Sa ugtP lethal, Mtb hypoxia inh, Mtb hypoxia inh growth, PrP UTR inh
- CCN(CC)CCCN1C=C2C(=O)C(C)(OC(=O)C3CCCC3)C(=O)C=C2C=C1c1ccsc1 (stereo unspecified)
→ 3006, -3, 4.5, -11, 9, 10, -3
- O=C(NC1CCN(C(=O)NCc2ccccc2)CC1)c1ccccc1
→ 3841, 4, 0.6, 9, 10, 2, -27
- CCN(CC)S(=O)(=O)c1ccc(C)c(NC(=O)CNCc2ccccc2OC)c1
→ 3647, 1, 2.3, 1, -1, 4, -1
- CC(C)Cc1nnc(NC(=O)CCC(=O)N2CC(C)CC(C)C2)s1 (stereo unspecified)
→ 5561, 14, 2.0, 8, 16, 10, -16
- Cn1cncc1C#Cc1c(C=O)[nH]c2ccccc12
→ 3232, ., 9.4, -5, 0, 1, -11
- COc1ccc(NC(=O)CN(c2ccc(OC)cc2)S(=O)(=O)c2c(C)nn(C)c2C)cc1
→ 4353, -8, 0.5, 3, -1, -3, -1
- COc1ccc(N2C(=O)CSC23C(=O)N2c4c(cccc43)C(C)=CC2(C)C)cc1 (stereo unspecified)
→ 16577*, -8, -0.2, -5, -1, 11, -34
- Cc1n(C)c2cc(Cl)ccc2[n+]1Cc1ccccc1
→ 3755, 14, 4.8, 6, 13, 4, -13
- O=C(Oc1ccc(-c2nnco2)cc1)c1ccc(Br)o1
→ 4426, 4, 2.5, 5, -1, -8, -3
- CCN1CCCC1CNC(=O)c1cc2c(-c3ccc(Cl)cc3)nn(C)c2s1 (stereo unspecified)
→ 7191, 7, -6.1, 2, ., ., -7
- CCN(CCCCCN(C)C)Cc1cc2ccccc2o1
→ 10689, 4, ., ., ., ., -22
- Fc1cccc(Cl)c1Cn1nnc(-c2ccc3c(c2)OCO3)n1
→ 4584, 6, -1.1, 21, 3, 4, -74
- CC(C)OC(=O)NC(Nc1ccccc1C(=O)O)(C(F)(F)F)C(F)(F)F
→ 4193, -12, 0.1, -5, 9, 5, -38
- CC=CC=CC(=O)Nc1cccc(C2=NOC3(C2)CC(C(N)=O)N(C(=O)COc2ccc(Cl)cc2)C3)c1 (stereo unspecified)
→ ., ., 4.0, -23, 6, 15, .
- Cc1ccc(NC(=O)CCc2c(C)nn(-c3ccc(N4CCOCC4)nn3)c2C)cc1F
→ 4900, 10, -2.2, 3, 4, 8, -17
- COc1cccc(C2CCCN2Cc2nc(-c3cnccn3)no2)c1 (stereo unspecified)
→ 4637, 1, 3.3, 7, 13, 7, -28
- O=C(c1cccc(Br)c1)N1CCN(c2cnn(-c3ccccc3)c(=O)c2Cl)CC1
→ 4713, 6, 0.6, 6, 11, 0, 13
- COc1ccc(C2/C(=C(/O)c3ccccc3)C(=O)C(=O)N2CCN2CCOCC2)c(OC)c1 (stereo unspecified)
→ 3347, -1, 0.1, -3, ., ., -19
- CC(O)CC(C(=O)NNc1ccccc1)C(=O)NNc1ccccc1 (stereo unspecified)
→ 4363, 4, 3.7, -2, 4, 2, -14
- Cc1ccc(SCCC(=O)NC(C(C)C)C(C)C)cc1
→ 2274, ., 6.3, 3, 3, 12, -31
- CC(C)CN1CCC(=O)N(C(CO)c2ccccc2)CC1 (stereo unspecified)
→ ., ., 0.4, -15, 2, 0, .
- CC(NC(=O)c1cccnc1)C(=O)O (stereo unspecified)
→ 2034, -3, -1.8, -7, 3, -14, -4
- COc1cc(Cl)c(C)cc1NC(=O)CSc1nc2ccccc2o1
→ 10829, 0, 7.6, 1, 1, -3, -10
- COC(c1ccccc1)c1nnc(CCC(=O)N(C)CCOc2ccccc2)o1 (stereo unspecified)
→ 2648, 3, -0.8, -1, 0, 1, -49
- Cc1c(NC(=O)c2cnn3c2NC(c2ccc(Br)cc2)CC3C(F)(F)F)c(=O)n(-c2ccccc2)n1C (stereo unspecified)
→ 4282, 2, -2.8, -2, 2, 1, -12
- CCn1c(CN2CCN(C(=O)c3ccco3)CC2)nc2c1c(=O)n(C)c(=O)n2C
→ 21356*, 4, 1.9, -2, 1, 2, 1
- COc1ccc(Nc2nc(-c3cc4cccc(OC)c4oc3=O)cs2)cc1
→ 2031, -9, 2.3, -19, -9, -4, -23
- O=C(NCC(=O)N1CCCCC1)c1ccc(Cl)cc1Cl
→ 2333, -1, 2.8, 6, ., ., -53
- CNC1(c2ccccc2Cl)CCCCC1=O (stereo unspecified)
→ 6492, ., 1.5, 10, ., ., -5
- CCOc1ccc(S(=O)(=O)NN2Cc3ccccc3C2=N)cc1
→ 3253, -1, 6.4, 11, -5, -6, -17
- Cc1c(Cl)cccc1NC(=O)NNC(=O)CCc1ccccc1
→ 6133, 1, 0.3, 9, 13, 0, -14
- COc1ccc(S(=O)(=O)/C(C#N)=C/Nc2cccc(F)c2)cc1
→ 3949, 7, 1.4, -18, 11, 2, -17
- Cc1ccc(S(=O)(=O)Nc2ccc(S(=O)(=O)Nc3cc(C)nc(C)n3)cc2)cc1
→ 4134, ., 4.5, 3, 10, 8, 0
- COc1ccc(OC(C)C(=O)NCc2cccnc2)cc1 (stereo unspecified)
→ 4203, 10, -0.1, -3, ., ., -12
- O=C(COC(=O)CC1CC2CCC1C2)Nc1cc([N+](=O)[O-])ccc1F (stereo unspecified)
→ 3305, 3, 15, 6, 11, 12, -18
- COc1ccc(NC(=O)COc2ccccc2)c(OC)c1
→ 3124, 9, 3.3, 6, ., ., -55
- Cc1ccc(C(=O)N2CCN(c3ccc(NC(=O)c4ccc(Br)o4)cc3)CC2)cc1
→ 3067, -2, -3.0, 1, ., ., 0
- N/C(=N\OC(=O)c1cccc(Cl)c1)c1ccncc1
→ 2005, -3, ., ., ., ., -41
- COc1ccc(Cl)cc1NC(=O)NC(C)C(C)(C)C (stereo unspecified)
→ 2488, -2, -10, 9, -20, -4, -12
- COc1ccc(/C=N/NC(=O)c2cc(C(C)(C)C)[nH]n2)cc1COc1ccc(F)cc1F
→ 3401, -3, ., ., ., ., 8
- CCOC(=O)c1sc(NC(=O)C(OC(C)=O)c2ccccc2)nc1C (stereo unspecified)
→ 2687, -3, 2.5, 1, 10, 3, -26
- COc1ccc(OC)c(/C(O)=C/C(=O)C(=O)Nc2cc(C)ccc2OC)c1
→ 3926, -9, ., ., ., ., -8
- O=c1c2cnn(-c3ccccc3)c2nnn1Cc1ccccn1
→ 3678, 9, 0.4, 6, ., ., -21
- O=C(COC(=O)CNC(=O)C12CC3CC(CC(C3)C1)C2)Nc1ccccc1
→ 19773*, -6, 7.3, -2, 12, 6, -16
- O=C(COc1ccccc1)c1cn(Cc2ccccc2)c2ccccc12
→ 2577, -1, -7.1, 0, 10, 4, -14
- N/C(=N\OC(=O)CC(c1ccccc1)c1ccccc1)c1cccnc1
→ 4410, 3, 4.5, 11, 9, 6, -14
- CC(=O)N1CC=CC1(CC(C)C)C(=O)NCCN1CCOCC1 (stereo unspecified)
→ 4083, -7, 4.2, 4, 4, 9, -8
- NS(=O)(=O)c1cc2c(cc1Cl)NC(c1ccccc1OCC(=O)O)NS2(=O)=O (stereo unspecified)
→ 5198, -13, 2.0, 0, 2, 13, 9
- Cn1c2c(c(=O)n(C)c1=O)CN(CCCN1CCOCC1)CN2
→ 16352*, -8, 7.0, -2, 9, 10, 1
- O=C1C(Cl)=C(NCC2CCCO2)C(=O)N1CCc1ccccc1 (stereo unspecified)
→ 7719, -1, 5.3, 11, 1, -3, -47
- CSc1ccccc1NC(=O)C(=O)c1c[nH]c2ccccc12
→ 4382, 38, -12, 5, 8, 0, -114
- CCCCN1C(=O)NC(=O)/C(=C/c2cnc(SC)nc2)C1=O
→ 2453, 3, -1.9, 4, ., ., -27
- S=C(NCC1CCCO1)Nc1cc(Cl)c(Cl)cc1Cl (stereo unspecified)
→ 4352, -1, 1.2, 6, 7, 10, -14
- CCCNC(=O)c1onc(CSc2ccc(F)cc2)c1C(=O)NCCOC
→ 4395, 9, 3.0, -5, 2, 5, -16
- COC(=O)C1=C(c2cccc(OCc3ccccc3)c2)C[C@@H]2CC[C@H]1N2C(=O)NCc1cccc(C(F)(F)F)c1
→ 3500, ., -21, 20, 5, 5, -5
- c1cncc(-c2nnc3n2N=C(c2cccs2)CS3)c1
→ 4372, -9, 3.1, -3, 20, 10, -8
- CC(=O)NNS(=O)(=O)c1scc(S(=O)(=O)c2ccc(Cl)cc2)c1C
→ 3349, -1, 1.3, 7, 10, -5, -8
- COc1ccccc1/C=C/C(=O)Nc1nc(N)n(-c2ccccc2)n1
→ 5310, -1, 1.5, -8, 3, 2, -2
- C#CCNC(=O)C1=CC(C2CCCCC2)C(CCCO)C(OCC)O1 (stereo unspecified)
→ ., ., 3.6&3.0, 3&1, 4&17, 4&14, .
- CC(=O)c1ccc(N2CCN(C(=O)c3ccc(Cl)c(S(=O)(=O)NC4CC4)c3)CC2)c(F)c1
→ 5555, ., 1.6, 2, -3, 14, 2

# Additional entries follow:
# Results follow in this order: Bead autofluor, BJeLR lethal, RN4220 kill, Sa ugtP lethal, Mtb hypoxia inh, Mtb hypoxia inh growth, PrP UTR inh
- CCC(=O)N1c2ccc(S(=O)(=O)CCC(=O)NCCC3=CCCCC3)cc2CC1C (stereo unspecified)
→ 4391, 2, 0.3, 3, ., ., -17
- CCn1cc(CNC(=O)/C=C/c2ccc([N+](=O)[O-])cc2)c(C)n1
→ 11399, 18, -2.1, 33, -1, 1, -35
- CN1C(=O)CC(n2c(CO)nc3ccccc32)C1=O (stereo unspecified)
→ 6599, 9, -0.9, 5, ., ., -3
- COc1cc(C)c(-c2nc(CN3C[C@@H]4C[C@@H](C3)c3cccc(=O)n3C4)c(C)o2)cc1C
→ 2414, 8, 13, 18, 4, 2, -6
- COc1cccc(S(=O)(=O)NCc2ccc(C(=O)N3CCN(c4ccccc4OC)CC3)cc2)c1
→ 5253, 1, ., ., ., ., 2
- NC(=O)c1ccc(NC(=S)NCc2ccco2)cc1
→ 4474, -1, -4.1, 5, -2, 2, -16
- CC1=NN(c2ccc(Cl)c(C(=O)O)c2)C(=O)C1
→ 2252, 5, 1.7, 9, 2, -3, -25
- COc1ccc(/C=C/C(=O)c2ccccc2)cc1COc1ccc(F)cc1
→ 10910, 4, 5.5, 17, 11, 7, -3
- CCOC(=O)C1C(=O)C=C(c2ccc(Br)cc2)CC1c1ccco1 (stereo unspecified)
→ 6369, -1, 13, 11, 13, 5, -24
- Cc1cccc(C2c3[nH]c4ccccc4c3CCN2Cc2cnn(-c3ccc(F)cc3)c2)n1 (stereo unspecified)
→ 2777, 3, 6.8, 2, 12, 0, -5
- N#C/C(=C1/C(=O)Nc2ccc(Br)cc21)c1ccccn1
→ 2522, -11, ., ., ., ., -31
- COc1ccccc1CNC(=O)Cc1c[nH]c2ccccc12
→ 2995, 6, 4.6, 0, 6, 3, -1
- CC(=O)Oc1ccc(C(=O)Nc2cc(C)on2)cc1
→ 3814, 1, -2.3, 1, -3, 10, -31
- O=C(Nc1ccccc1Cl)ON=Cc1ccncc1
→ ., ., 1.5, 2, 7, -5, .
- Cc1cc(OCC(=O)N2CCN(CC(=O)N3CCOCC3)CC2)c(C(C)C)cc1Cl
→ 3873, ., 4.2, 5, 6, -7, -8
- c1ccc(N=C2N=C(Nc3ccccn3)c3ccccc32)nc1
→ ., ., 0.5, 9, 0, 9, .
- Clc1ccc(C(c2ccccc2Cl)C(Cl)Cl)cc1 (stereo unspecified)
→ 4159, ., -8.7, 93*, 1, 1, 4
- NC(=O)CSc1nc2ccccc2n1-c1ccccc1
→ 5724, -4, 0.2, -7, 0, 7, -7
- COc1ccccc1CNC(=S)NCCc1ccccc1
→ 2389, 6, 0.3, 4, 8, 5, -30
- CCOC(=O)C1CCN(c2c(Nc3ccc(C)c(C)c3)c(=O)c2=O)CC1
→ 4069, -4, 0.9, -1, -14, -40, -17
- CC(=O)Oc1ccccc1-n1c(C)nc(=O)c(-c2ccccc2)c1C
→ 4443, -6, 1.2, -1, 1, 4, .
- O=C(Cn1cnc2ccccc2c1=O)Nc1ccc(S(=O)(=O)N2CCOCC2)cc1
→ 4504, 9, 0.5, 1, 6, -1, 2

# Ordered by SMILES length (lowest first): three of the compounds above.
# Results follow in this order: Bead autofluor, BJeLR lethal, RN4220 kill, Sa ugtP lethal, Mtb hypoxia inh, Mtb hypoxia inh growth, PrP UTR inh
- CC1=NN(c2ccc(Cl)c(C(=O)O)c2)C(=O)C1
→ 2252, 5, 1.7, 9, 2, -3, -25
- CC(=O)Oc1ccccc1-n1c(C)nc(=O)c(-c2ccccc2)c1C
→ 4443, -6, 1.2, -1, 1, 4, .
- CCOC(=O)C1CCN(c2c(Nc3ccc(C)c(C)c3)c(=O)c2=O)CC1
→ 4069, -4, 0.9, -1, -14, -40, -17

# Bioassay records from PubChem BioAssay.
